# Assay outcomes from PubChem BioAssay.
# VACV mCherry inh = inhibitors of vaccinia virus infection (mCherry reporter signal); Vaccinia virus mCherry reporter infection, fluorescence; about a quarter of the inactives have no number; Potency, µM (doses to about 36.5 µM), for the others: at the top dose activity change, negative = inhibition, hits mostly inhibitors; 310,000 tested, 0.63% active; active = well fitted inhibition curve with a large enough effect; inconclusive = small, poorly fitted or top-dose-only effect; inactive = no such curve, though single readings can be large or run the other way; tested in A549 cells; also: nearly all actives have a fitted effect of over 35% in size; inactives centre near -10
# Vaccinia Venus = inhibitors of vaccinia virus (Venus reporter) | Vaccinia virus Venus reporter expression, fluorescence | Potency, µM (series often up to 36.5 µM), for the others: at the top dose activity change, negative = inhibition, usual class: inhibitors | 330,000 tested, 0.46% active; active means well fitted inhibition curve with a large enough effect; inconclusive means small, poorly fitted or top-dose-only effect; inactive means no such curve, though single readings can be large or run the other way; tested in A549 cells; also: nearly all actives have a fitted effect of over 30% in size; inactives centre near -10
# * marks the source's active call; other numbers are inactive results; i = inactive; u = inconclusive; x = not tested or not shown; & = joins results of further samples; [ ] = dose if it differs, or a comment. % is scaled to controls: 0 for no effect and ±100 for the full control effect; potency is read from the fitted curve at half-maximal effect. Rows are unselected; 0.87% or so of the library scored in one or more.
molecule | VACV mCherry inh | Vaccinia Venus
CCOC(=O)C1CCCN(C(=O)c2ccc(CS(=O)(=O)c3ccc(C)cc3)o2)C1 (stereo not given) | 12.5% | -0.6%
Cc1cc(C)c2cc(C(=O)Nc3ccc(C)c(F)c3)[nH]c2c1 | i | -18.3%
CC(C)(C)c1ccc(C(=O)Nc2nnc(Cc3c[nH]c4ccccc34)s2)cc1 | -24.4% | -19.9%
COC(=O)c1c(NC(=O)CN2C(=O)NC(CCc3ccccc3)C2=O)sc2c1CCCCC2 (stereo not given) | -19.2% | u
O=C(Nc1ccc(-c2nc3cc(NC(=O)c4ccccc4F)ccc3o2)cc1)c1ccccc1F | -5.1% | -4.3%
CCOc1ccc(S(=O)(=O)NCCC(=O)NCC(c2ccc(F)cc2)N2CCOCC2)cc1 (stereo not given) | i | -12.2%
COc1ccc(OC)c(NC(=O)C(=O)c2cn(CC(=O)N3CCCC3)c3ccccc23)c1 | i | -13.2%
Cc1ccc(C(=O)NCc2ccc(F)cc2)cc1NC(=O)c1nsc2ccccc12 | -6.5% | -9.6%
Cc1ccccc1Nc1cc(C)c2c(O)cccc2n1 | u | -3.8%
CCOC(=O)c1c(C)n(CC(O)CN(CC)CC)c2cc(Br)c(OC)cc12 (stereo not given) | i | -14.0%
N/C(CSc1ccccn1)=N\OCc1c(Cl)cccc1Cl | -8.3% | -26.0%
CCOC(=O)c1ccccc1NC(=O)COc1cc(=O)n(CC)c2ccccc12 | -18.6%&-4.0% | -16.3%&-5.4%
CC(=O)c1cc(-c2ccccc2)n(CCC(=O)NC2CCCCC2)c1C | -0.5%&-9.2% | -2.3%&-16.0%
O=C(CN1C(=O)COc2ccccc21)N1CCC2(CC1)OCCO2 | -2.4%[7.34 µM] | 7.2%[7.34 µM]
CCN(c1ccccc1)S(=O)(=O)c1ccc(OC)c(NC(=O)CNC)c1 | -1.1% | -2.4%
O=C(NCCS(=O)(=O)N1CCN(c2ccccc2F)CC1)C(c1ccccc1)c1ccccc1 | -17.5% | -13.1%
CCOC(=O)C1=C[C@@H](c2ccccc2)N(S(=O)(=O)c2ccc(C)cc2)[C@H]1c1ccc(F)cc1 | i | -14.1%
COc1ccc(NC(=O)CCSc2ccc(F)cc2)cc1 | i | -2.6%
Cc1cccc(C)c1OCC(O)CN (stereo not given) | -12.3% | -1.2%
Cc1cccc(Nc2cc(C)nc3ccccc23)c1 | -19.6% | -17.6%

molecule | VACV mCherry inh | Vaccinia Venus
Cc1nnc(-c2ccccc2)o1 | -5.8% | -3.5%
Cc1c(NC(=O)CSc2nnnn2Cc2ccccc2)c(=O)n(-c2ccccc2)n1C | -14.6% | -8.9%
c1ccc(CSc2ccc3nnc(-c4cccnc4)n3n2)cc1 | i | -8.7%
O=C(OCC(O)C(O)C(O)C(SCc1ccccc1)SCc1ccccc1)c1ccccc1 (stereo not given) | -17.7% | -10.2%
O=C(O)c1ccc(NC(=S)N2CCCCC2)cc1 | 7.3% | -9.5%
C(=N\Nc1nc2ccccc2[nH]1)/c1cccs1 | i | -12.7%
O=C(OCc1nc2ccsc2c(=O)[nH]1)c1ccccc1 | i | -6.0%
CCOC(=O)C1CCCN(C/C=C/c2ccccc2[N+](=O)[O-])C1 (stereo not given) | -7.9% | 2.3%
O=S1(=O)Nc2c(ccc3cccnc23)-c2ccccc21 | u | u
O=c1c2ccccc2nc(SCc2nc3ccccc3s2)n1CCCO | -3.3% | u
CCOC(=O)C1=CCN(S(=O)(=O)c2ccccc2Cl)C1c1cccc(F)c1 (stereo not given) | 16.4% | -6.9%
COc1ccccc1-c1nnc(SCCOc2ccccc2C)o1 | 14.2% | 3.3%
COc1ccc(-c2noc(CCc3ccccc3)n2)cc1 | -9.1% | 6.2%
CN(C(=O)c1cccc(NC(=O)Cc2ccc(NC(=O)C3CCN(C(=O)C4CCC4)CC3)cc2)c1)C1CC1 | -2.7% | -20.5%
Cc1ccc(NC(=S)NC(=O)c2cncc(Br)c2)cc1Cl | i[7.34 µM] | -0.2%[7.34 µM]
Cn1cc(Br)c(-c2cccc(N3C(=O)CC(C)(C)CC3=O)c2)n1 | i | -6.0%
CC1(C(=O)NS(=O)(=O)c2cccs2)CCN1C(=O)c1ccccc1 (stereo not given) | 11.8% | 0.0%
CCN(CC)C(=O)[C@H]1CC(CC(=O)NC(C)(C)C)C(=O)N2CCc3c([nH]c4ccc(OC)cc34)[C@]12C (stereo not given in full) | -6.4% | -18.9%
Cc1ccc(S(=O)(=O)c2nc(-c3cccs3)oc2SCC(=O)Nc2cc(C)cc(C)c2)cc1 | -11.3%[7.34 µM] | -5.3%[7.34 µM]
CCCc1nccn1S(=O)(=O)c1cc(Br)ccc1OC | 0.0% | -8.8%

# The closing two compounds of the part above lead into the next.
molecule | VACV mCherry inh | Vaccinia Venus
Cc1ccc(S(=O)(=O)c2nc(-c3cccs3)oc2SCC(=O)Nc2cc(C)cc(C)c2)cc1 | -11.3%[7.34 µM] | -5.3%[7.34 µM]
CCCc1nccn1S(=O)(=O)c1cc(Br)ccc1OC | 0.0% | -8.8%
COc1ccccc1CNC(=O)C(=O)NCC(c1ccc2c(c1)OCO2)N1CCOCC1 (stereo not given) | -4.7% | -4.0%
CC(=O)Nc1ccc(Sc2ccccc2C(=O)O)cc1 | i | -12.6%
O=C1C(Cl)=C(NCCN2CCOCC2)C(=O)c2ccccc21 | -36.0% | -26.1%
CCCCNC(=O)c1oc2ccc(S(=O)(=O)N3CCCC3)cc2c1C | -8.9% | -16.7%
Cc1ccc(-n2ncc3c(NCCC4=CCCCC4)ncnc32)cc1 | -12.7% | -8.3%
O=C(COC(=O)/C=C/c1cccc(F)c1)Nc1cccc(S(=O)(=O)NC2=NCCCCC2)c1 | -21.7% | -0.5%
CCOC(=O)c1cc2sc(C)cc2n1CC(=O)NCc1ccc(F)cc1 | i | 10.4%
CC(=O)N1CCc2cc(Br)cc(S(=O)(=O)NCCCN3CCC(C)CC3)c21 | -15.6% | -6.4%
COc1cccc(C(=O)C2CCCN(Cc3cccc(OCCO)c3)C2)c1 (stereo not given) | -7.1% | -5.6%
CCCNC(=O)C1(C)CCN(C(=O)c2ccc3c(c2)CCO3)C1 (stereo not given) | 7.1% | 3.3%
CN1CCCC(OC(=O)c2cc(Cl)cc(Cl)c2)C1 (stereo not given) | -6.8% | -8.6%
CCN(CC)Cc1cc(NC2=NS(=O)(=O)c3ccccc32)ccc1OC(=O)c1ccccc1 | -10.9% | -5.8%
O=C(O)Cn1nnnc1SCC(=O)Nc1ccc(OC(F)(F)F)cc1 | -19.2% | -8.9%
COC(=O)C1=NNC2(c3ccc(C)cc3)C(=O)N(c3cccc(C)c3C)C(=O)C12 (stereo not given) | i | -13.6%
CCCN(CC(=O)Nc1ccc(F)c(F)c1F)Cc1cc(=O)n2ccsc2n1 | -18.7% | -7.7%
Cc1cc2nnc(SCC(=O)Nc3cccc(S(=O)(=O)N4CCOCC4)c3)n2c2ccccc12 | u | u
O=S(=O)(NCCc1csc(-c2ccc(F)cc2)n1)c1ccc(Cl)cc1 | -20.2% | -6.9%
CCOc1ccc(CCNC(=O)Cn2ccc3cc(S(=O)(=O)N4CCCCCC4)ccc32)cc1 | i | -4.6%
COc1cccc(N=Cc2nc(-c3ccccc3)oc2OC(C)=O)c1 | i | -1.2%
C=CCc1cccc(CNc2nc3ccccc3n2C(C)C)c1O | -26.5% | -21.1%

molecule | VACV mCherry inh | Vaccinia Venus
CCCn1c(CCl)nc2cc(S(=O)(=O)N3CCOCC3)ccc21 | i | -3.3%
O=C1C(=O)N(c2ccccc2)C(c2ccccc2[N+](=O)[O-])/C1=C(\O)c1ccccc1 (stereo not given) | -11.1% | -13.8%
Cn1c(SCC(=O)Nc2ncc(C(F)(F)F)cc2Cl)nnc1-c1ccc(Cl)cc1 | -14.0% | -3.5%
CCc1ccccc1NC(=O)Cn1nnc2sc3c(c2c1=O)CCC(C(C)(C)C)C3 (stereo not given) | -18.7% | -22.7%
Cc1[nH]c(N)nc(=S)c1CCCNc1ccccc1 | u | 5.5%
Cc1cc2c(cc1C)C(c1ccccc1Br)CC(=O)N2 (stereo not given) | -19.0% | -27.3%
CCNC(=O)CSc1nnc(-c2ccccc2Br)n1-c1cccc(C(F)(F)F)c1 | -5.4% | -16.0%
CN(C)CCCN(C(=O)c1ccco1)c1nc2c(F)cc(F)cc2s1 | 4.7% | 5.0%
O=C(CSC(=S)N1CCCC1)Nc1ccc(Br)cc1Cl | -17.9% | -7.8%
CCC1CCCCN1CCCNC(=O)c1ccc2c(c1)N(Cc1cccc(Cl)c1)C(=O)c1ccccc1S2(=O)=O (stereo not given) | -22.9% | -24.0%
Cc1c(Cl)cccc1Nc1nc(N)nc(CN2CCCCCC2)n1 | -4.3% | -5.5%
N#Cc1ccccc1Sc1ccccc1C(=O)OCC(=O)NC12CC3CC(CC(C3)C1)C2 | -13.0% | -15.0%
O=C(O)c1cccc(-c2csc(C(O)(c3ccccc3)C(F)(F)F)n2)c1 (stereo not given) | 1.9% | -7.5%
C=Cn1cc[n+](CC(=O)c2ccc(-c3ccccc3)cc2)c1 | i | -0.4%
COc1ccc(/C=C/c2cc[n+](C)c3ccccc23)cc1OC | -14.9% | 34.7%[activator]
COc1ccc(C=O)cc1OS(=O)(=O)c1ccc(NC(C)=O)cc1 | i | 6.4%
CCC(=O)Nc1ccc(C(=O)NNC(=O)CCCCC(=O)NNC(=O)c2ccc(NC(=O)CC)cc2)cc1 | -12.6% | 3.7%
Cc1c(C(=O)NCc2ccc(C(C)C)cc2)sc(=O)n1Cc1ccc(S(=O)(=O)N(C)C)cc1 | -5.0% | -27.6%
CCN(CC)C(=O)C1=C(C)N(Cc2ccc(C(C)(C)C)cc2)C(=O)C(CC(=O)NC2CCCC2)C1 (stereo not given) | -14.5% | -24.3%
Cc1cc(C)cc(NC(=O)CCC(=O)Nc2nnc(C(C)C)s2)c1 | i | -8.7%

molecule | VACV mCherry inh | Vaccinia Venus
CN(C)CP(=O)(Nc1ccccc1)N(C)C (stereo not given) | x | -6.8%
O=C(CCNS(=O)(=O)c1cccc2nsnc12)NCCc1ccccc1 | -11.3% | -5.9%
N#CC(C#N)=C1C=C2C=C(N3CCOCC3)CCC2CC1 (stereo not given) | -6.8% | x
COC(=O)[C@@H](N)CCCN=C(N)N[N+](=O)[O-] | -0.1% | -5.2%
COCC(=O)Nc1cc(OC)cc(OC)c1 | x | 1.0%
COc1ccccc1N(CC(=O)Nc1ccccc1F)S(C)(=O)=O | -11.6% | -4.9%
CS(=O)(=O)N1CCN(c2nc3ccc(Cl)cc3s2)CC1 | i[7.34 µM] | -5.7%[7.34 µM]
C=C(C)CN(CC)C(=O)Cn1cnc2c(oc3ccccc32)c1=O | i | -11.4%
CCOc1ccc(NC(=O)NCc2ccc3c(c2)OCO3)cc1 | -4.7% | -2.8%
CCOc1ccccc1NC(=O)CSc1nc2c(oc3ccccc32)c(=O)n1C(C)C | -11.4% | 3.3%
CCOC(=O)Cn1c(=O)oc2cc(S(=O)(=O)NC3CCCc4ccccc43)ccc21 (stereo not given) | -18.8% | -11.6%
COc1ccc(C(=O)Nc2ccccc2C(=O)N2CCOCC2)cc1Br | -4.4% | 2.0%
CCOC(=O)[C@]12CCC=C1N(CCC1=CCCCC1)C(=O)[C@H](CC(=O)NCc1ccc(C)o1)C2 | -14.5% | -2.7%
CC(=O)Nc1cccc(-c2cnc3ccccc3n2)c1 | -22.6% | -7.7%
C[C@]12CC[C@H](OS(=O)(=O)O)CC1=CC[C@@H]1[C@@H]2CC[C@]2(C)C(=O)CC[C@@H]12 | -2.9%&-1.0%&-14.9% | -13.7%&-14.1%&-7.0%
COc1ccc(C(C)(O)c2nc(-c3ccc(N(C)C)cc3)cs2)cc1 (stereo not given) | u | -11.3%
Cc1ccc2oc(C(=O)Nc3ccc(S(=O)(=O)N(C)c4ccccc4)cc3)cc(=O)c2c1 | -6.4% | -24.3%
COc1ccc(CNc2nc3c(c(=O)[nH]c(=O)n3C)n2CCCc2ccccc2)cc1 | -2.3%[1.46 µM] | -12.4%
O=C(O)c1ccccc1NS(=O)(=O)c1ccc2ccccc2c1 | 4.2% | 3.8%
Cc1ccc(-c2nc(-c3cccs3)c(-c3cccs3)[nH]2)cc1 | u | -25.0%

molecule | VACV mCherry inh | Vaccinia Venus
CC(C)Cc1nnc(NC(=O)Nc2ccccc2)s1 | u | u
O=C(/C=C/[C@H]1O[C@@H](n2cnc3c(NC(=O)c4ccccc4)ncnc32)[C@H](O)[C@@H]1O)NCCCc1ccccc1 | -1.9% | 3.1%
Cc1ccc(/C=C/c2nnc(-c3ccc(C)cc3)o2)cc1 | -0.3% | 0.0%
Cc1ccc(C)c(NC(=S)N2C3CCCC2CC(NC(=O)C2CC2)C3)c1 (stereo not given) | 4.5% | 4.0%
CC(=O)Nc1ccc(C(=O)CSc2nnc(-c3ccc(O)cc3)n2CC2CCCO2)cc1 (stereo not given) | u | -10.4%
CCO[C@@H]1OC(C(N)=O)=C[C@H](c2coc3ccccc3c2=O)[C@H]1CCCO | i | -11.8%
O=C(CSc1nnc2ccc(-c3ccc(Br)cc3)nn12)NCC1CCCO1 (stereo not given) | u | u
CNC(=S)N1N=C(c2ccc(C)cc2)CC1c1ccc(OC)cc1 (stereo not given) | -13.1%[1.46 µM] | u
Cc1c(CCC(=O)NCc2cccc(Cl)c2)c(=O)oc2c(C)c(O)ccc12 | -10.3% | -9.6%
CC(CCc1ccccc1)NC(=O)COC(=O)c1ccc([N+](=O)[O-])cc1 (stereo not given) | u | -17.7%
